High-throughput results as filed in PubChem BioAssay.
TRPML1 inh: qHTS for Inhibitors of the Human Mucolipin Transient Receptor Potential 1 (TRPML1); activity change, negative = inhibition, % (test concentration not listed); 0.02% of 390,000 active; AID 624415, 2012; TRPML1-inducible cells, Ca2+ dye fluorescence, FDSS; active compounds read low; inhibition of EC80 agonist-evoked calcium signal; in the data active means activity change below about -50%; inconclusive means about -30% to -50%; inactive means above about -30%;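 further: stimulus is agonist 54-4 at its EC80 concentration; on the % scale 0 is the no-effect control and ±100 the full control effect; compound concentration not given in the record; the text of the record puts the active cut at -80%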
Target sequence (Q9GZU1 whole entry, looked up): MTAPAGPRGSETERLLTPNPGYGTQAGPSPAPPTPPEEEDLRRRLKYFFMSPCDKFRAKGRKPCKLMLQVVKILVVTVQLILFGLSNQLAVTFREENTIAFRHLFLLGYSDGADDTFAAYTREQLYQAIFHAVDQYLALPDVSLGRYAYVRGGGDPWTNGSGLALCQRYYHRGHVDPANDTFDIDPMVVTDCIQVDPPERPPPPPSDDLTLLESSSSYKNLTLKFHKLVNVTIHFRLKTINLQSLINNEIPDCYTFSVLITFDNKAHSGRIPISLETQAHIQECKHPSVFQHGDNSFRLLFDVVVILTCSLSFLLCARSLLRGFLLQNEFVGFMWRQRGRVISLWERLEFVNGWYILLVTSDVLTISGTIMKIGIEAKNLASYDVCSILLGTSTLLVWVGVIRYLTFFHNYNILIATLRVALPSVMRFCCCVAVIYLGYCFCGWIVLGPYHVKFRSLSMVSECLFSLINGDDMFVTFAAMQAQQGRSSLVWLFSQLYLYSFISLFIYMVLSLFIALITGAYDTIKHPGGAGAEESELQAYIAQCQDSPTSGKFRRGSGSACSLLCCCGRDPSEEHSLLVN
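Tet-induced TRPML1-DL cells loaded with Ca8 no-wash calcium dye were read kinetically on FDSS. Compound addition was followed by EC80 agonist 54-4 (4 uM final); inhibition was read over 110 s.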
Sfp PPTase inh: qHTS Assay for Inhibitors of Bacillus subtilis Sfp phosphopantetheinyl transferase (PPTase). 4'-phosphopantetheinyl transferase ffp (Bacillus subtilis), Q9F4F7. Biochemical Sfp PPTase activity, qHTS. Potency, µM, without a hit: max response, negative = inhibition, hits mostly inhibitors. 3.5% of 310,000 active. AID 1490, 2009; active means well fitted inhibition curve with a large enough effect; inconclusive means small, poorly fitted or top-dose-only effect, or another doubt; inactive means no such curve, though single readings can be large or run the other way;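 further: the enzyme is Sfp with the accession as filed and its product quenches rhodamine fluorescence; potency means the concentration at half of the fitted maximal effect; 0% = enzyme reaction without inhibitor and -100% = no enzyme wells; top concentration of the series not given in the record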
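Buffer: 50 mM Hepes-Na pH 7.6, 10 mM MgCl2, 0.01% Nonidet P-40, 0.01% BSA. Enzyme 15 nM, pre-exposed to compound 15 min; substrates then added and fluorescence change tracked over 30 min.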
gsp agonist: qHTS for Agonist of gsp, the Etiologic Mutation Responsible for Fibrous Dysplasia/McCune-Albright Syndrome: qHTS; 0.13% of 340,000 active; Potency, µM (doses to about 76.9 µM), for the others: top-dose activation (cAMP increase), most hits filed as activators; gsp mutant cells, cAMP HTRF, 30 min; control for the full effect not named in the record; active = well fitted activation curve with a large enough effect; inconclusive = small, poorly fitted or top-dose-only effect, or another doubt; inactive = no such curve, though single readings can be large or run the other way; cell line not stated here;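 further: phosphodiesterase inhibitor Ro 20-1724 added with compounds to block cAMP breakdown; potency means the concentration at half of the fitted maximal effect; nearly all actives have a fitted effect of over 60% in size; about a fifth of the inactives were tested at one dose only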
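Cells in DMEM/10% FBS with G418 were pretreated with compounds in DMSO plus […] (300 uM stock) for 30 min at 37C. cAMP was measured by HTRF (cAMP-d2 plus anti-cAMP antibody-K) after 30 min at room temperature.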
Menin MLL FP FL: qHTS Assay for Inhibitors Targeting the Menin-MLL Interaction in MLL Related Leukemias: Competition With Fluorescein Labeled MLL-derived Peptide | Fluorescence polarization, fluorescein-MLL peptide displacement from menin | FP activity change, % at 61.4 µM | 290,000 tested, under 10 active; inconclusive = falling polarisation curve, or a change in total fluorescence; inactive = total fluorescence flat and polarisation flat or rising; no compound was filed as active; the % refers to the polarisation; negative = inhibition;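 further: % of control where 0% means no effect; inhibitors lower the polarisation; unlabelled MLL peptide was the positive control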
ClpP mod: qHTS Assay for Activators of ClpP. purified B. subtilis ClpP, FRET peptide cleavage, 20 min. Potency, µM (titrated, usually from 57.5 µM), inactives show at the top dose activity change, negative = active. 1.9% of 340,000 active. AID 651965, 2013; active = well fitted falling curve with a large enough effect; inconclusive = small, poorly fitted or top-dose-only effect; inactive = no such curve, though single readings can be large or run the other way; further: potency means the concentration at half of the fitted maximal effect; the source files actives as falling curves though it sought activators and does not explain the sign; nearly all actives have a fitted effect of over 65% in size; many hits overshoot -100%
Target sequence (P80244 whole entry, looked up): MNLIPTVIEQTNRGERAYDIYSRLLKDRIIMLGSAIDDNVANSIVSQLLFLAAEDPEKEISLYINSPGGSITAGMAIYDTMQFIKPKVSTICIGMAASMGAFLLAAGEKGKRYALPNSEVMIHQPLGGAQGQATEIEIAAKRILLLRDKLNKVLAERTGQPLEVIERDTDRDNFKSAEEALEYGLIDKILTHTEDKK
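FRET quenching reversal measured ClpP activation: 10 microg/mL B. subtilis ClpP at pH 8 with the FRET-FV decapeptide, read at 430 nm after 320 nm excitation. The 20-min minus 0-min signal was scaled between DMSO/no-enzyme wells and ADEP (5.8 microM final).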
gsp antagonist: qHTS for Antagonists of gsp, the Etiologic Mutation Responsible for Fibrous Dysplasia/McCune-Albright Syndrome: qHTS; 0.4% of 340,000 active; AID 624288, 2012; gsp-mutant cells, cAMP HTRF, 30 min; control for the full effect not named in the record; Potency, µM (top dose mostly 76.9 µM), for the others: top-dose activity change, negative = inhibition, usual class: inhibitors; active = falling curve of any shape with a large fitted effect; inconclusive = falling curve, mostly with a smaller effect; inactive = flat or rising curve; cell line not stated here;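 further: intracellular cAMP measured with PDE inhibitor Ro 20-1724 present during compound exposure; potency means the concentration at half of the fitted maximal effect; on the % scale 0 is the no-effect control and ±100 the full control effect; nearly all actives have a fitted effect of over 65% in size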
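Measurement of cellular cAMP by homogeneous time-resolved fluorescence following a 30 min compound exposure at 37C. The PDE inhibitor […] was present throughout; the assay buffer was DPBS with 0.05% BSA and 0.005% Tween 20.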
TRPV1 potentiator: HTS Assay for Compounds that Act as Potentiators of the Vanilloid Receptor 1; Transient receptor potential cation channel subfamily V member 1 (Homo sapiens), Q8NER1; TRPV1-expressing cells, Fluo-8 calcium influx, capsaicin EC20 potentiation; host cell line not named in the record; control for the full effect not named in the record; potentiation, % at 8.33 µM; 0.02% of 320,000 active; active means potentiation above 80%; inconclusive means 30% to 80%; inactive means below 30%; further: 0% is about no effect
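Fluo-8 calcium influx in TRPV1-expressing cells, kinetic read (ex 480/em 520 nm). Compound added and read 3 min for agonist activity, followed by capsaicin at EC20 final and 2 min further read for enhancement.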
Starred values were filed as active, the others as inactive; ? = inconclusive; . = not tested or not shown; [ ] = another dose, or the depositor's remark. An unsorted share of the library, and some 4.9% of all compounds hit somewhere here.

SMILES | TRPML1 inh | Sfp PPTase inh | gsp agonist | Menin MLL FP FL | ClpP mod | gsp antagonist | TRPV1 potentiator
CSCCC(NC(=O)c1ccccc1Cl)C(=O)NCC(c1ccco1)N1CCCCC1 (stereo not drawn) | 25 | . | -4%[15.4 µM] | . | . | 6% | -14
CC1C(=O)N2CCCc3cc(NC(=O)C(=O)NCc4ccc5c(c4)OCO5)cc1c32 (stereo not drawn) | 6 | . | -6%[15.4 µM] | . | 0.9% | -6% | 3
COCCN1CCN(C(=O)C2CCC(=O)N(Cc3ccc(Cl)cc3)C2)CC1 (stereo not drawn) | -4 | 15% | 1% | -2.3 | 0.0% | 4% | 2
Cc1cc(=O)n2[nH]c(C)c(-c3ccc(Cl)cc3)c2n1 | -6 | 2% | -8% | 7.3 | ? | ? | -24
Cc1c(C(=O)N2CCOCC2)c(S(=O)(=O)Nc2ccc(C(C)C)cc2)c(C)n1C | 11 | 9% | ? | 1.8 | -0.8% | 5% | -5
CNC(=S)Nc1cc(C)ccc1OC(F)F | -19 | -3% | 23% | 0.1 | . | 3% | 6
Cc1cc(C)cc(N(CC(=O)NC2CCCCC2)C(=O)c2csnn2)c1 | -8 | 9% | -7%[15.4 µM] | . | 0.7% | -15% | -5
O=C(c1ccc(N2CCCCS2(=O)=O)cc1)N1CCN(c2ccccc2F)CC1 | 3 | 5% | 0% | . | -1.1% | 6% | 4
Cc1ccccc1OCC(=O)OCC(=O)Nc1ccc(S(N)(=O)=O)cc1 | 12 | 25% | ? | 0.9 | . | 0% | 5
Cc1ccc(-c2nnc(N3CCC(C)CC3)c3ccccc23)cc1C | 63 | -17% | -19%[15.4 µM] | 2.8 | . | . | -9
CCOC(=O)C1CCN(C(=O)Nc2ccc3oc(C)nc3c2)CC1 | 3 | 7% | -41%[inhibitor] | 2.9 | 0.8% | 0% | 2
CCN(CC)CC(O)CN1C(=O)NC(C)(C)C1=O (stereo not drawn) | -12 | -11% | -19%[15.4 µM] | -1.5 | . | 9% | 0
C/C(=N\NC(=O)CNC(=O)C(c1ccccc1)c1ccccc1)c1ccc(C)cc1 | . | 17% | . | -0.3 | . | . | -4
COc1ccccc1OCC(=O)Nc1ccc(S(=O)(=O)Nc2nccs2)cc1 | 12 | 15% | -13%[15.4 µM] | -2.4 | . | ? | 6
O=C(CCCSc1nc2ccccc2c(=O)[nH]1)c1ccc(F)cc1 | 3 | 5% | -1%[15.4 µM] | 0.8 | . | . | 0
O=C(N/N=C/c1ccc2c(c1)OCO2)c1cc(-c2ccncc2)nc2ccccc12 | 11 | -16% | 17% | -0.7 | 0.7% | 29% | 20
O=C(CSc1nnc(-c2ccccc2)n1-c1ccc(Cl)cc1)N/N=C/c1ccco1 | -11 | 12% | 0% | 0.4 | ? | -15% | 3
Cc1cc(S(=O)(=O)N2CCN(c3ccccc3F)CC2)ccc1-n1cnnn1 | -4 | -8% | 11%[15.4 µM] | 0.0 | -3.8% | 7% | -21
O=C(O)c1oc2ccccc2c1CSc1ccccn1 | -1 | -3% | -38%[inhibitor] | 0.3 | -1.3% | -7% | 2
CCN1CCCC1CNC(=O)C(=O)Nc1ccccc1OC (stereo not drawn) | -12 | 7% | 14% | -4.5 | -0.9% | 1% | 2
Cc1cc(=O)oc2cc(OCC(=O)OC(C)C(=O)Nc3ccc(S(N)(=O)=O)cc3)ccc12 (stereo not drawn) | 34 | . | -16% | . | 21% | 1% | .
Cc1nc(Sc2cccn2C)c(C(F)(F)F)c(=O)[nH]1 | 2 | 9% | -2% | 1.7 | 0.4% | 2% | -15
COc1cc(C(=O)NN2C(=O)NC3(CCC(C)CC3)C2=O)ccc1OC(F)F (stereo not drawn) | 9 | . | 7% | . | -0.6% | 1% | .
O=C(Nc1cccc(Br)c1)c1ccc(OC2CSC2)cc1 | . | 5% | . | 2.5 | . | . | -20
NC(=S)N/N=C/c1ccc(C23CC4CC(CC(C4)C2)C3)cc1 | 2 | -20% | 9% | -2.6 | . | 1% | 9
CSc1nc(N2CCOCC2)c2ccccc2n1 | 23 | 8% | 5% | 3.3 | -7.6% | 13% | -3
CCc1nnc(NC(=O)C2CCC2)s1 | -2 | 18% | -18% | 5.8 | -3.8% | 5% | 3
O=C(NNc1c([N+](=O)[O-])cc(C(F)(F)F)cc1[N+](=O)[O-])c1ccco1 | 18 | -6% | -11% | . | 1.6% | ? | -1
COc1ccc(S(=O)(=O)N2CCOCC2)cc1C(=O)Nc1cc(C)on1 | 4 | 9% | 25% | -1.1 | -3.3% | 8% | 4
COc1ccc(CNC(=O)COC(=O)C2CCN(S(=O)(=O)c3ccccc3C(F)(F)F)CC2)cc1 | -12 | -5% | 3% | -1.4 | 0.1% | 5% | -8
COC(=O)[C@H]1[C@@H](C)N(Cc2ccccc2)C(=O)N[C@H]1c1cccc(C(F)(F)F)c1 | -8 | -15% | -49%[inhibitor] | -0.1[11.7 µM] | -2.5% | 4% | .
CNS(=O)(=O)c1ccc(CNC[C@H]2O[C@@H](n3cnc(C(N)=O)n3)[C@H](O)[C@@H]2O)cc1 | 79 | . | . | . | -1.3% | 7% | .
COc1ccc(S(=O)(=O)N2CCOCC2)cc1NC(=O)CSc1ncnc2ccccc12 | 10 | 12% | -76%[inhibitor] | 3.7 | -1.8% | 5% | 7
CCc1nnc(NC(=O)CSc2nnnn2-c2cccc(C(=O)OC)c2)s1 | 4 | 12% | -5% | 1.2 | -2.5% | -8% | -3
C=CCn1c(SCC(=O)NC2CCCC2)nc2c([nH]c3ccccc32)c1=O | -1 | -5% | 14%[15.4 µM] | . | 1.1% | 1% | 3
CC1CCCCC12NC(=O)N(CC(=O)N1CCN(S(=O)(=O)c3ccc4c(c3)CCC4)CC1)C2=O (stereo not drawn) | -5 | . | 12% | . | -1.4% | 3% | -11
CCOc1ccc(NC(=O)CN(C)c2nnnn2-c2ccccc2)cc1OCC | 0 | 1% | 24% | 3.6 | 2.8% | 0% | -10
Cc1cc(C)cc(NC(=S)NC2CC3CCCC(C2)N3C2CC2)c1 (stereo not drawn) | -8 | 10% | 0% | 1.0 | 0.2% | 1% | -1
COCCc1nc2ccc(C(=O)NCc3cccc(-n4cccn4)c3)cc2o1 | 6 | 18% | 0% | . | 0.2% | -14% | 23
COc1ccc(Oc2nc3ccccc3n3cccc23)cc1 | -19 | -27% | 3% | -1.6 | ? | -2% | -2
Cc1cc(=O)[nH]c(Sc2c(-c3ccccc3)c3ccccc3[nH]c2=O)n1 | -10 | -11% | ? | -2.3 | -4.8% | 2% | 7
CCN(Cc1ccccc1)C(=O)COC(=O)CNC(=O)c1ccc(C)s1 | -6 | 20% | -40%[inhibitor] | -5.1 | 1.2% | -6% | 1
O=C(NCc1cccnc1)C(=O)N/N=C/c1ccc([N+](=O)[O-])cc1 | -4 | 3% | -72%[inhibitor] | -3.2 | -0.2% | 0% | 4
COc1ccc(NC(=S)N2CCc3ccccc3C2)cc1 | 26 | 8% | ? | -0.9 | 1.9% | -8% | 6
O=C(c1ccc([N+](=O)[O-])cc1)N(C1=NCCCCS1)c1ccccc1 | -2 | -2% | -22% | 3.2 | 0.5% | 12% | 3
Cc1cccn2c(=O)c3cc(C(=O)N4CCCCC4)sc3nc12 | -5 | 9% | 6%[15.4 µM] | 0.9 | 0.1% | 15% | 10
CCn1c(=O)c(C(=O)NCc2ccccc2Cl)c(O)c2ccccc21 | 6 | 0% | -19% | -0.4 | ? | -14% | -6
C=C1CCN(C(CC(C)C)C(=O)NCc2cc(OC)c(OC)c(OC)c2)S(=O)(=O)c2ccccc21 (stereo not drawn) | 7 | -16% | . | -1.7 | . | . | .
O=C(C1=NNC2C(=O)N(c3ccccc3)C(=O)C12)c1nc(Cl)ccc1Cl (stereo not drawn) | -18 | 4% | -7%[15.4 µM] | -2.7 | -1.9% | 6% | 3
COc1ccccc1/C=N/n1nnnc1N | 8 | 9% | -3% | 0.6 | . | 0% | 4
CC(CCc1ccccc1)NC(=O)CC(C)c1ccccc1 (stereo not drawn) | 13 | -3% | 8% | 0.3 | 0.1% | -4% | -14
CC(C)c1cc(C(N)=O)c(NC(=O)c2cccc(COc3ccc(Cl)cc3)c2)s1 | 6 | 13% | 0%[15.4 µM] | -3.4 | -1.8% | -4% | 6
O=C(Nc1cccc(Cl)c1)N1CCc2ccccc2C1 | 11 | 0% | -20% | 3.1 | . | -14% | -6
Cc1cc(/C=C2/C(=N)N3C(=NC2=O)SN=C3S(C)(=O)=O)c(C)n1-c1ccc(F)cc1 | 22 | -13% | 2% | ? | -11% | -20% | -11
O=C(CCc1nc(-c2ccc(Cl)cc2)no1)NC1CCCC1 | 4 | 11% | -17% | -0.2 | -0.7% | 9% | -12
CCN(CC)S(=O)(=O)c1ccc(N2CCOCC2)c(NC(=O)COc2ccc(Cl)cc2)c1 | 16 | 9% | -4% | 0.9 | -2.8% | -12% | 24
CS(=O)(=O)c1ccc(C2=C(c3ccccc3)C(=O)OC2)cc1 | 3 | 23% | . | -0.9 | 1.3% | -6% | .
COC(=O)c1ccc(CSC2=NCCS2)cc1 | -2 | 8% | 1% | 2.0 | -4.9% | 7% | -8
CCCS(=O)(=O)c1nnnn1-c1cccc(OC)c1 | -13 | -24% | -41%[inhibitor] | 3.4 | 0.1% | -2% | -1
COc1ccccc1Nc1nc(-c2sc(NC(=O)c3cccc(Cl)c3)nc2C)cs1 | . | -6% | . | 8.4 | . | . | 23
Cc1cccc(C)c1NC(=O)N1CCC(n2cnc3ccccc32)CC1 | -8 | -2% | -15% | 2.5 | -2.1% | 0% | 11
